Source: PubChem (ICCB-Longwood Screening Facility, Harvard Medical School)
MgrA DNA FP – alters Staphylococcus aureus MgrA binding to DNA; fluorescence polarization; inhibition, %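 (about 10 µg/mL by stock and volumes)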; 84,000 compounds, 0.13% hits;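 active means above 50% in either of two replicates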;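 further: 0% = protein plus DNA without compound and 100% = DNA alone without protein; higher means less MgrA bound to DNA so lower polarization; one replicate is shown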
Sa helicase inh – blocks Staphylococcus aureus DNA helicase | purified S. aureus helicase, fluorescence unwinding assay; about half of the hits fall short of the stated cut | inhibition, %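 (tested at about 80 µM)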 | 120,000 compounds, 0.05% hits | AID 485395;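 active means both duplicates at 50% or more, or one of them with a favoured structure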;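 further: 0% = mean of negative control wells and 100% = mean of positive control wells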
The depositor's hits bear a star; / = no result given. Not all compounds are listed, so the mix of outcomes need not match the whole.

SMILES	MgrA DNA FP	Sa helicase inh
O=C1CCCN1CCCNc1nsc2ccccc12	/	-8.0
O=C(NN1C(=O)CSC1c1ccco1)c1ccc(O)cc1 (stereo unspecified)	-5.2	11.0
CC(NC(=O)CSc1ccccn1)c1ccc2c(c1)OCO2 (stereo unspecified)	/	5.0
Cc1nn(-c2ccccc2)c(C)c1/C=N/NC(=O)c1ccc2c(=O)n3c(nc2c1)CCCCC3	/	-1.0
CC(C)NS(=O)(=O)c1ccc(NC(=O)C2CCCCC2)cc1	0.7	-5.0
CCOc1ccc(C2NC(=O)NC(C)=C2C(=O)OCc2ccc(C)cc2)cc1OC (stereo unspecified)	-0.3	/
O=C(c1ccc2c(c1)OCO2)N1CCN(C2c3ccccc3-c3ccccc32)CC1	/	-21.0
COc1cc(C)c(Cl)cc1S(=O)(=O)N(C)C	-2.0	13.0
O=C(O)C(Cc1ccccc1)Nc1ncnc2ccccc12 (stereo unspecified)	/	2.0
O=C(COc1ccc2ccccc2c1Br)NCCC1=CCCCC1	-4.5	-6.0
COc1ccccc1NC(=O)c1ccc2c(Cl)c3c(nc2c1)CCC3	/	9.0
CCOC(=O)c1ccc(Oc2sccc2[N+](=O)[O-])cc1	0.8	/
CCC(=O)Nc1ccc(C(=O)n2ccc(C)n2)cc1	/	8.0
CCOC(=O)c1cnn2c(C(F)(F)F)cc(-c3ccc(OC)cc3)nc12	-0.1	0.0
O=C(N1CCC(c2ccccc2)=N1)C(F)(F)F	3.7	9.0
CCCCc1c(O)nc2cc(C)ccn2c1=O	0.7	15.0
CC(C)(C)NC(=O)COc1ccc2c(c1)OCO2	-1.4	2.0
Cc1c(N=Cc2cc(Br)cc(Br)c2O)cccc1C(=O)O	3.1	9.0
O/N=C/c1ccc(Br)cc1	1.8	2.0
CC(C)OC(=O)c1c(NC(=O)c2cnn3c2NC(c2ccc(Br)cc2)CC3C(F)(F)F)sc2c1CCCC2 (stereo unspecified)	2.6	/
C=CCNc1cnn(-c2ccccc2)c(=O)c1Cl	-1.1	3.0
COc1ccc(C)cc1S(=O)(=O)N1CCN(C)CC1	0.1	6.0
Cc1cc(N2CCC(C(=O)NC(=O)C3CCNCC3)CC2)n2nc(C)c(-c3ccc(Cl)cc3)c2n1	/	17.0
CCCNC(=O)c1cc(-c2ccc(Cl)cc2)n[nH]1	/	-25.0
O=c1[nH]nnn1-c1ccccc1	/	0.0

3 entries already listed, arranged by the number in MgrA DNA FP, descending.
canonical_smiles | MgrA DNA FP | Sa helicase inh
C=CCNc1cnn(-c2ccccc2)c(=O)c1Cl | -1.1 | 3.0
CC(C)(C)NC(=O)COc1ccc2c(c1)OCO2 | -1.4 | 2.0
O=C(NN1C(=O)CSC1c1ccco1)c1ccc(O)cc1 (stereo unspecified) | -5.2 | 11.0

(more compounds)
SMILES	MgrA DNA FP	Sa helicase inh
CCN(Cc1ccccc1)Cc1nnnn1CCOC	-0.2	21.0
CN1CCC(N(C)C(=O)c2cn(-c3ccccc3)nc2-c2cccs2)CC1	-1.2	-6.0
CCCC1(CCC)NC(=O)N(CCOc2ccc(C)cc2)C1=O	/	-2.0
CCN(CCN(C)C)C(=O)Cn1ncc2c(=O)oc3ccc(C)cc3c21	/	16.0
Cc1ncc(CO)c2c1Oc1[nH]c(-c3ccccc3)nc(=S)c1C2	/	-22.0
C=CCNC(=O)CCn1c(=O)sc2ccccc21	/	-35.0
O=C(Nc1cccc(C(F)(F)F)c1)c1c(F)cccc1F	-2.6	/
O=C(CSc1nnc(-c2ccccc2)o1)Nc1ccccc1	-2.2	5.0
Brc1ccc(-c2ccc(C3CCCCC3)cn2)cc1	2.7	21.0
Cc1ccc(C)n1-c1ccc(-c2n[nH]c(=S)n2-c2ccccc2)cc1	0.1	/
O=C1CSC(c2ccccc2O)N1Cc1ccccc1 (stereo unspecified)	/	-37.0
O=C(CC1(O)C(=O)N(Cc2ccccc2)c2ccccc21)c1ccc(Br)s1 (stereo unspecified)	-4.2	-15.0
CCN(CC)S(=O)(=O)c1ccc(Cl)c(C(=O)N2c3ccccc3Sc3ccccc32)c1	-1.8	11.0
CN(C)S(=O)(=O)c1cccc(C(=O)N2CCN(c3ccccc3)CC2)c1	/	-14.0
COc1cc(C2C(C#N)=C(SCC(=O)c3cc4ccccc4o3)NC3=C2C(=O)CC(C)(C)C3)cc(OC)c1OC (stereo unspecified)	3.7	-1.0
Cc1ccc(CNC(=O)C2CCN(S(=O)(=O)N3CCC4(CC3)OCCO4)CC2)cc1	/	17.0
CCOc1ccsc1C(=O)NN	1.7	/
Cc1cc(C)c2c(=O)n(CC(=O)NC(C)c3ccccc3)sc2n1 (stereo unspecified)	3.1	17.0
CN(Cc1nc2ccccc2n1C)S(=O)(=O)c1ccc(F)cc1	/	-25.0
COc1cccc(C(=O)OCC(=O)N2c3ccccc3CC2C)c1 (stereo unspecified)	/	5.0
O=C1CSC(c2ccc(Cl)cc2)N1Nc1nc(Nc2ccccc2)nc(N2CCCCC2)n1 (stereo unspecified)	2.3	7.0
CC1CCCCN1C(=O)c1ccccc1F (stereo unspecified)	-1.4	10.0
Cc1ccccc1NC(=O)/C=C/c1ccc2c(c1)OCO2	0.9	1.0
CC1(C)CC(=O)c2sc(NC(=O)c3cc(=O)c4ccccc4o3)nc2C1	/	14.0
Cc1ccccc1C(=O)NC1CCN(CC(=O)NC(C)(C)C)CC1	-0.5	17.0

A draw from above in order of heavy-atom count, lowest first:
SMILES	MgrA DNA FP	Sa helicase inh
Brc1ccc(-c2ccc(C3CCCCC3)cn2)cc1	2.7	21.0
CCN(Cc1ccccc1)Cc1nnnn1CCOC	-0.2	21.0
CN(Cc1nc2ccccc2n1C)S(=O)(=O)c1ccc(F)cc1	/	-25.0
Cc1ccccc1C(=O)NC1CCN(CC(=O)NC(C)(C)C)CC1	-0.5	17.0
CN(C)S(=O)(=O)c1cccc(C(=O)N2CCN(c3ccccc3)CC2)c1	/	-14.0
CN1CCC(N(C)C(=O)c2cn(-c3ccccc3)nc2-c2cccs2)CC1	-1.2	-6.0

Next part.
SMILES	MgrA DNA FP	Sa helicase inh
O=C(Oc1ccc2oc(-c3ccco3)cc(=O)c2c1)c1ccccc1	2.9	-24.0
CCCC(=O)Nc1c2c(nn1-c1ccc(OC)cc1)CSC2	/	21.0
Cn1nnnc1SCC(=O)NC1Cc2ccccc2C1	-2.5	/
CCOC(=O)C(C)n1cnc2c(cnn2-c2ccc(F)cc2)c1=O (stereo unspecified)	1.6	17.0
CCOC(=O)C1=C(CSc2nnc3n(-c4ccccc4)c(=O)c4ccccc4n23)NC(=O)NC1C (stereo unspecified)	/	1.0
CC1CCc2cc(F)cc3c(O)c(C(=O)Nc4ccccn4)c(=O)n1c23 (stereo unspecified)	3.4	9.0
COc1ccc(C2NC(=O)NC3=C2C(=O)CCC3)cc1 (stereo unspecified)	/	-2.0
CCCSc1nc2sc3c(c2c(=O)[nH]1)C(C)CCC3 (stereo unspecified)	0.0	13.0
CN(C)C(=O)/C=C/c1cn(-c2ccccc2)nc1-c1cc2ccccc2o1	/	-15.0
Cc1oc(-c2ccccc2F)cc1CO	/	8.0
CS(=O)(=O)Nc1ccc(-c2cn3c(n2)SCC3)cc1	9.8	/
CC1CCCC(C)N1S(=O)(=O)c1ccc(NC(=O)c2ccccc2C(=O)N2CCOCC2)cc1 (stereo unspecified)	-1.1	-4.0
Cc1cc2nnc(SCC(=O)NCC(C)C)n2c2ccccc12	-2.4	-1.0
CN(C)c1nc(N)nc(Cn2cnc3sc4c(c3c2=O)CCCC4)n1	1.1	2.0
Cc1ccc2cnn(CC(=O)N3CCCCC3)c2c1	/	13.0
CNC(=O)NC(=O)CSc1nnc(-c2ccncc2)n1Cc1ccccc1	-0.8	/
COc1ccc(C2NC(C(=O)O)C3C(=O)N(c4ccc(F)cc4)C(=O)C23)c(OC)c1 (stereo unspecified)	/	1.0
CCn1nc(C)cc1C(=O)n1nc(C)c(Sc2ccc(C(F)(F)F)cn2)c1C	/	18.0
O=Nc1c(O)n2c3c(cccc13)CCC2	1.7	1.0
COc1ccccc1N(C(C)=O)C1SC(=O)N(c2ccccc2)C1=O (stereo unspecified)	/	-35.0
CN1C(C(=O)c2ccccc2)=C(NC(=O)c2ccccc2)c2ccccc2S1(=O)=O	/	-30.0
CC(C)NC(=O)CN1C(=O)C(C)(C)Oc2ccc(C(=O)NC(C)C)cc21	1.2	19.0
CC1CCc2ccccc2N1C(=N)N(C)C (stereo unspecified)	0.2	9.0
CC1CCCCN1Cc1cn2c(-c3ccc(Br)cc3)nnc2s1 (stereo unspecified)	/	18.0
O=C(Cn1c(=O)oc2ccccc21)N1CCN(S(=O)(=O)/C=C/c2ccccc2)CC1	/	-9.0

6 of the compounds above, in markdown.
| Structure | MgrA DNA FP | Sa helicase inh |
| --- | --- | --- |
| CC1CCCC(C)N1S(=O)(=O)c1ccc(NC(=O)c2ccccc2C(=O)N2CCOCC2)cc1 (stereo unspecified) | -1.1 | -4.0 |
| CCn1nc(C)cc1C(=O)n1nc(C)c(Sc2ccc(C(F)(F)F)cn2)c1C | / | 18.0 |
| CN1C(C(=O)c2ccccc2)=C(NC(=O)c2ccccc2)c2ccccc2S1(=O)=O | / | -30.0 |
| O=C(Cn1c(=O)oc2ccccc21)N1CCN(S(=O)(=O)/C=C/c2ccccc2)CC1 | / | -9.0 |
| CCCC(=O)Nc1c2c(nn1-c1ccc(OC)cc1)CSC2 | / | 21.0 |
| CC(C)NC(=O)CN1C(=O)C(C)(C)Oc2ccc(C(=O)NC(C)C)cc21 | 1.2 | 19.0 |

Next part
SMILES	MgrA DNA FP	Sa helicase inh
COc1ccc(N2CCN(Cc3cc(=O)c(OCc4ccccc4)co3)CC2)cc1	/	13.0
Cc1ncc([N+](=O)[O-])n1CC(C)O (stereo unspecified)	4.2	/
C/C(=N\NC(N)=S)c1cc2cc(Cl)ccc2o1	6.6	/
O=C1CSCC(=O)N1c1ncc(C(F)(F)F)cc1Cl	-1.3	/
O=C(Nc1ccc(Oc2cccnc2)nc1)c1ccc(Cl)cc1	-1.9	/
Clc1cccc(Cl)c1CSc1nnc(N2CCOCC2)n1-c1ccccc1	/	-9.0
C=CCSC1=C(C#N)C(c2ccccc2Cl)CC(=O)N1 (stereo unspecified)	0.4	-3.0
C=CCNC(=O)C#Cc1ccccc1	-2.5	0.0
Cn1c(=O)c2c(nc(Sc3n[nH]c(N)n3)n2Cc2ccccc2Cl)n(C)c1=O	/	2.0
CCC(C)(C)Nc1ncccc1C(=O)O	2.4	-11.0
Cc1occc1C(=O)N1CCCCCC1	-1.4	8.0
Cc1ccc(Nc2nc(N)nc(CSc3nnnn3-c3ccccc3)n2)cc1	/	11.0
CC(C)[C@H](NC(=O)c1cccc(S(=O)(=O)N2CCOCC2)c1)C(=O)O	/	0.0
N#CC1=C(S)N=C(N)C(c2nc(-c3ccccc3)cs2)C12CCCCC2 (stereo unspecified)	4.2	7.0
CC(C)CC(=O)Nc1ccncc1	1.2	3.0
CCn1c(=NC(=O)c2cccc(OC)c2)sc2cccc(OC)c21	/	5.0
CC(C)=Cc1nc2cccc(F)c2c(=O)o1	0.9	/
COc1ccc(C(=O)NCc2ccc3[nH]c(C)cc3c2)cc1OC	/	14.0
O=Nc1c(O)[nH]c2c(C(F)(F)F)cccc12	/	2.0
Nc1cccc(-c2cc(C(=O)O)c3cc(Br)ccc3n2)c1	/	21.0
C=CCOC(=O)[C@@H](N)Cc1ccc(O)cc1	4.5	/
O=C(NCc1nc2ccccc2[nH]1)c1c(F)c(F)c(F)c(F)c1F	/	-7.0
CCOC(=O)C1=C(N)N(c2ccc(OC)cc2)C(=O)C1	/	11.0
CCOC(=O)C1CCN(C(=O)c2c(-c3ccccc3)noc2C)CC1	-2.2	/
O=c1oc(-c2cccs2)nc2scc(-c3ccccc3)c12	/	-30.0

Next compounds follow:
SMILES	MgrA DNA FP	Sa helicase inh
O=C(NCc1csc(-c2ccccc2)n1)c1ccco1	3.2	-22.0
O=C(Cc1ccccc1)n1nc(-c2ccco2)nc1NCc1ccccc1	/	-30.0
OC1(c2ccc(Cl)cc2Cl)CSC(=S)N1Cc1ccco1 (stereo unspecified)	/	13.0
CC(OC(=O)c1ccc(S(=O)(=O)N2CCCC2)cc1)C(=O)NC1CC1 (stereo unspecified)	/	-5.0
Cn1c(=NC(=O)CSCC(=O)Nc2nccs2)sc2ccccc21	/	-5.0
Cc1cc(NC(=O)CCC2CCCCC2)no1	1.8	3.0
O=C(Nc1ccccc1)c1ccc2ncccc2c1	-1.6	/
Cc1ccccc1C(=O)NC(C)c1ccc2c(c1)OCCO2 (stereo unspecified)	1.3	8.0
COc1ccc(CCNC(=O)C2=NNC(=O)CC2)cc1	/	-2.0
N#Cc1cnc(Sc2nnc(-c3ccncc3)o2)nc1N	/	17.0
Cc1c(C(=O)O)oc2c1ccc1ccccc12	/	-21.0
CCn1c(SCC(=O)Nc2cccc3nsnc23)nc2ccccc21	/	-11.0
Cc1nnc(N2CCCC2)c2c1nnn2Cc1ccccc1Cl	/	12.0
Cc1c(C)n(CC(O)CNC2CCCCC2)c2ccccc12 (stereo unspecified)	1.4	8.0
Cn1ncc(C#N)c1/N=C/N(Cc1ccccc1)Cc1ccccc1	-2.3	10.0
CCOc1ccc2nc3c(cc2c1)CN(CCO)C(=Nc1cccc(OC)c1)S3	1.4	-2.0
CC1=NN(c2cccc(Cl)c2)C(=O)C1	-1.1	/
CC1=C(c2nc(-c3ccccc3)no2)C(c2ccsc2)NC(=S)N1 (stereo unspecified)	/	-20.0
CC1=C(C(=O)Nc2ccc(C(=O)NCc3ccc4c(c3)OCO4)cc2)SCCO1	0.5	1.0
Cc1cc(C)c(C#N)c(Oc2ccc(F)cc2)n1	/	7.0
O=C(Oc1ccc(Oc2ccccc2)cc1)c1cccc([N+](=O)[O-])c1	2.1	/
CCOC(=O)Cc1nnn(CC(=O)OCC)n1	/	11.0
CCN1CCCC1CNCc1c(C(=O)O)n(Cc2ccccc2C)c2ccccc12 (stereo unspecified)	12.4	7.0
c1ccc([S+]2c3ccccc3Nc3ccccc32)cc1	-2.2	16.0
Cc1ccccc1CSCc1nc2ccccc2c(=O)n1CC#N	/	-1.0
CCOC(=O)C1CCN(C(=O)c2cnn(-c3ccccc3)c2C)CC1	-2.0	/
Cn1cc(CCC(=O)NCCCc2ccccc2)c2ccccc21	-1.1	14.0
